Sa helicase inh – inhibitors of S. aureus replicative helicase, primary screen, biochemical, fluorescence unwinding readout. replicative DNA helicase (DnaC/DnaB), Staphylococcus aureus. purified S. aureus helicase, fluorescence unwinding assay; about half of the hits fall short of the stated cut. inhibition, %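 (tested at about 80 µM)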. actives 0.05% (n = 120,000);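 active means both duplicates at 50% or more, or one of them with a favoured structure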;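 further: 0% = mean of negative control wells and 100% = mean of positive control wells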
MgrA DNA FP – S. aureus MgrA activity modulators, primary screen, biochemical, S. aureus Newman, fluorescence polarization; AID 602314, 2012; MgrA-DNA binding; actives 0.13% (n = 84,000); inhibition, %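 (about 10 µg/mL by stock and volumes)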;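 active means above 50% in either of two replicates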;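 further: 0% = protein plus DNA without compound and 100% = DNA alone without protein; higher means less MgrA bound to DNA so lower polarization; one replicate is shown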
Numbers without * were called inactive; . = not tested or not shown; & = joins results of further samples. These rows are one share of the data (hit frequency here may not be typical).

The first six records as a preview:
Sa helicase inh	MgrA DNA FP	structure
6	3.8	CCCNC(=O)C(Sc1ccccc1)c1ccccc1 (stereo unspecified)
-10	2.5	Cc1ccc(Nc2nc(C(=O)N3CCCCC3)cs2)cc1
18	-1.4	CC(C)OC(=O)C(N)c1ccccc1 (stereo unspecified)
.	0.7	CSCCC(C(=O)O)N1C(=O)/C(=C/c2ccc(Cl)cc2Cl)SC1=S (stereo unspecified)
-4	-0.4	COc1cc(OC)c(C(=O)N2CCN(c3ccccc3F)CC2)cc1OC
26	.	Cc1ccc(-c2nc3ncccc3o2)cc1NC(=O)C(C)(C)Oc1ccc(Cl)cc1

The listing, from the start:
Sa helicase inh	MgrA DNA FP	structure
6	3.8	CCCNC(=O)C(Sc1ccccc1)c1ccccc1 (stereo unspecified)
-10	2.5	Cc1ccc(Nc2nc(C(=O)N3CCCCC3)cs2)cc1
18	-1.4	CC(C)OC(=O)C(N)c1ccccc1 (stereo unspecified)
.	0.7	CSCCC(C(=O)O)N1C(=O)/C(=C/c2ccc(Cl)cc2Cl)SC1=S (stereo unspecified)
-4	-0.4	COc1cc(OC)c(C(=O)N2CCN(c3ccccc3F)CC2)cc1OC
26	.	Cc1ccc(-c2nc3ncccc3o2)cc1NC(=O)C(C)(C)Oc1ccc(Cl)cc1
12	-2.5	CCCCN1COc2ccc(CCNC(=O)c3ccc(Cl)cc3)cc2C1
-3	-0.1	C#CCNc1c2c(nc3nnnn13)CCCC2
2	-1.3	C=CCN1CCN(C(=O)c2cc(OC)c(OC)cc2OC)CC1
-3	.	N#CCOC(=O)c1cccc(I)c1
-14	.	CNC(=O)NC(=O)C(Sc1nnc(SC)s1)c1ccccc1 (stereo unspecified)
12	.	COc1ccc(-c2nnc3sc(CN4CCc5ccccc54)cn23)cc1
5	-0.2	O=C(c1ccc2c(c1)OCCO2)C1CCCCC1
2	.	CSc1nc(N)nn1CCC#N
0	.	COC(Cn1c(-c2ccc(Cl)cc2)n[nH]c1=S)OC
-11	.	CN(CC(=O)Nc1c(Cl)cccc1Cl)CC(=O)N1CCc2ccccc21
12	0.0	Cc1cc(N2CCCN(C)CC2)nc2cc(Cl)ccc12
.	-0.1	COc1ccc(CC2CCc3ncc(C)cc3C2)cc1 (stereo unspecified)
-22	.	NS(=O)(=O)c1ccc(CCNC(=O)c2ccc(/C=N/O)cc2)cc1
4	.	CC(=O)N(C(C)=O)c1ccccc1-c1ccccc1
-5	.	COc1ccc(CN(C)S(=O)(=O)c2cn(C)c(=O)n(C)c2=O)cc1OC
.	-1.2	Cc1csc2ncnc(Sc3ccc(Cl)cc3)c12
3	.	COc1ccccc1-n1c(CNC(=O)c2ccccc2)n[nH]c1=S
26	3.2	CC(C)CNc1oc(COc2ccccc2F)nc1C#N
.	-0.8	CCC(C)COc1ccc(O)cc1 (stereo unspecified)
11	-0.2	OC(COc1cccc2cccnc12)Cn1c2ccccc2c2ccccc21 (stereo unspecified)
-3	.	COc1cccc(NC(=O)N2CCC(C(=O)O)CC2)c1
-17	1.3	CCC1CCCCN1C(=O)COC(=O)c1cncc(Br)c1 (stereo unspecified)
2	0.5	Cc1oc(-c2ccccc2Cl)nc1CSCC(=O)NC1CCCC1
.	0.5	c1ccc(C2Nc3ccccc3-c3nc4ccccc4n32)cc1 (stereo unspecified)
1	.	CC(C)n1c(C2CC(=O)N(c3ccccc3)C2)nc2ccccc21 (stereo unspecified)
4	.	Cc1ccc(C(=O)CSc2nnc(-c3ccc4c(=O)n5c(nc4c3)CCCCC5)o2)s1
2	0.5	COc1ccc(NC(=O)c2ccccc2N(C)S(C)(=O)=O)cc1
11	0.0	O=C(N/C(=C\c1ccc2c(c1)OCO2)C(=O)N1CCOCC1)c1ccccc1Cl
2	.	COC(=O)CSc1cc(C(=O)c2nccn2C)c2ccccc2n1
.	-0.1	N#Cc1sccc1CSc1ccc(Cl)cc1
.	0.7	CN(C)CCCN1c2ccccc2CCc2ccc(Cl)cc21
-13	.	Nn1c(SC2CCOC2=O)nnc1-c1cccnc1 (stereo unspecified)
1	.	COc1ccc2c(CN(C)CC(=O)Nc3ccc(N4CCOCC4)cc3)cc(=O)oc2c1
16	5.2	N#C/C(=C\Nc1cccc(Cl)c1)c1nc2ccccc2[nH]1
.	-0.1	CC(C)(C)c1cc2nc(C(F)(F)F)cc(N/N=C/c3ccc(C(F)(F)F)cc3)n2n1
3	.	CC1CCC(n2cccc2)CC1 (stereo unspecified)
11	.	CCC(=O)c1ccc(OCC(=O)N2CCN(S(=O)(=O)c3cccc(C(F)(F)F)c3)CC2)cc1
0	.	CCc1nc2ccccc2n1CC(C)C
.	3.0	C=CCOC(=O)C1=C(C)NC(S)=C(C#N)C1c1cccs1 (stereo unspecified)
.	13	CCOc1cc(C=C2C(=O)NC(=O)NC2=O)cc(Br)c1OCCOc1ccccc1
32	.	N#Cc1ccc(OCC(=O)OCC(N)=O)cc1
3	.	Cn1c(-c2ccccc2)c(C(=O)COC(=O)[C@@H]2CCCN2C(=O)c2cccs2)c2ccccc21
-5	.	O=C(Cc1ccccc1)Nc1ccc2c(c1)OCO2
-4	.	O=C(O)CCN1C(=O)S/C(=C\c2cccs2)C1=O
13	1.1	Cc1ccc(OCC(=O)Nc2cc(-c3nn(C)c(=O)c4ccccc34)ccc2N2CCOCC2)cc1
6	.	OC(CCl)c1ccc(-n2cncn2)cc1 (stereo unspecified)
12	.	CCOC(=O)c1ccc(-c2ccc(-c3nc4ccc(S(N)(=O)=O)cc4[nH]3)o2)cc1
15	.	CC(c1ccccc1)N1C(=O)OC(C)(C)C1(C)O (stereo unspecified)
9	.	CCC1CCCCN1C(=O)CSc1cccc[n+]1[O-] (stereo unspecified)
-12	.	COc1ccc(C2=CSC3=C(C(=O)c4cccc(S(=O)(=O)N5CCOCC5)c4)CCN23)cc1
-5	0.8	CCn1c(SC)nnc1C1CCCN(S(=O)(=O)c2ccc3c(c2)OCCO3)C1 (stereo unspecified)
.	-1.4	COc1c(NC(=O)N2CC(C)OC(C)C2)csc1Cl (stereo unspecified)
18	.	Cn1c(=O)cc(OCC(=O)Nc2ccc(F)cc2F)c2ccccc21
-4	-2.3	Oc1ccccc1-n1cccc1

Pulled one by one from the entries so far (2):
Sa helicase inh	MgrA DNA FP	structure
9	.	CCC1CCCCN1C(=O)CSc1cccc[n+]1[O-] (stereo unspecified)
15	.	CC(c1ccccc1)N1C(=O)OC(C)(C)C1(C)O (stereo unspecified)

Ordered by heavy-atom count (ascending): 6 of the compounds above
Sa helicase inh	MgrA DNA FP	structure
-4	-2.3	Oc1ccccc1-n1cccc1
6	.	OC(CCl)c1ccc(-n2cncn2)cc1 (stereo unspecified)
-5	.	O=C(Cc1ccccc1)Nc1ccc2c(c1)OCO2
18	.	Cn1c(=O)cc(OCC(=O)Nc2ccc(F)cc2F)c2ccccc21
-5	0.8	CCn1c(SC)nnc1C1CCCN(S(=O)(=O)c2ccc3c(c2)OCCO3)C1 (stereo unspecified)
-12	.	COc1ccc(C2=CSC3=C(C(=O)c4cccc(S(=O)(=O)N5CCOCC5)c4)CCN23)cc1

Additional entries follow.
Sa helicase inh	MgrA DNA FP	structure
2	-1.6	Cc1cc(C)nc(SCC(=O)Nc2ccc(N3CCOCC3)cc2)n1
-17	.	CCCC(=O)NCCc1nc2ccccc2n1C
3	1.9	O=C(Nc1cccc2ccccc12)c1cnn2c1NC(c1ccccc1)CC2C(F)(F)F (stereo unspecified)
16	.	CCCC1CCC(=NN=C(N)N)CC1 (stereo unspecified)
2	.	Cc1ccc(Nc2nc(CSc3nnnn3C3CC3)cs2)cc1
.	-2.2	CCCN(CCC)S(=O)(=O)c1cccc2c(N)cccc12
18	.	CCc1ccc(NC(=O)CCS(=O)(=O)c2ccc3c(c2)CC(=O)N3C)cc1
20	-0.6	CC(C)CCNC(=O)c1ccc2c(=O)n3c(nc2c1)CCCCC3
7	-1.1	CC(=O)N(c1ccc(C)c(C)c1)C1C=CS(=O)(=O)C1 (stereo unspecified)
-5	2.0	CC(C)CC(=O)Nc1ccccc1NC(=O)CC(C)C
5	.	COc1ccc(/C=C/C(=O)C2=C(O)c3ccccc3C2=O)cc1
1	.	COC(=O)c1cc2occc2n1Cc1cn2ccccc2n1
.	4.1	COc1cccc(OCc2cc(C3Nc4ccccc4C(=O)N3c3cccc4ccccc34)ccc2OC)c1 (stereo unspecified)
.	3.7	CCOC(=O)c1c(-c2ccccc2)csc1/N=C\c1nc(-c2ccccc2)oc1O
.	0.1	Cc1ccc(SC(=O)N2CCOCC2)cc1
-14	.	CCOC(=O)c1c(/N=C/N(C)C)sc(C(=O)OC)c1C
.	0.1	Cc1ccc(S(=O)(=O)n2nc(C)c(Sc3nccn3C)c2C)cc1
-23	.	CCn1c(-c2ccc(Cl)cc2)csc1=Nc1ccc(O)cc1
-13	-1.2	NC(=O)NC(=O)CC1Nc2ccccc2NC1=O (stereo unspecified)
-18	.	FC(F)(F)COc1ccc(-c2nc(-c3ccc(Cl)cc3)no2)cn1
-7	.	CC1CCN(c2ncnc3c2cnn3-c2ccccc2)CC1
.	0.0	O=C(N/C=N/O)c1ccc(-n2ccnc2)cc1
15	-1.2	CSc1nc(C)c(Oc2ccccc2)c(=O)n1C
5	4.2	N#Cc1ccc(OCC(=O)N2CCCc3ccccc32)cc1
-5	.	CC(=O)NC(Nc1ccc(S(N)(=O)=O)cc1)(C(F)(F)F)C(F)(F)F
-3	.	CS(=O)(=O)c1ccc(C(=O)NC2CCCCC2)cc1
14	.	COC(=O)c1cn(NC(=O)CC2CCCCC2)c(=O)c2ccccc12
24	.	CNC(=O)N1c2ccccc2NC(=O)CC1C (stereo unspecified)
7	1.2	CCOc1ccc(-n2c(=O)c3sccc3n(CC(=O)Nc3cccc(C(F)(F)F)c3)c2=O)cc1
.	-1.3	O=C(CSc1nnnn1-c1ccccc1)NC1Cc2ccccc2C1
-4	-3.8	Cc1ccccc1OCCCn1cnc2ccccc21
.	-3.8	O=C1CSC(=S)N1c1ccccc1
3	2.3	O=C1S/C(=C\c2ccco2)C(=O)N1c1ccccc1
4	2.1	Cc1ccc(Sc2ccc(CO)o2)cc1
-15	.	Cc1nc(Cc2nnc(SCC(=O)N3c4ccccc4Sc4ccccc43)o2)cs1
0	1.7	CCOC(=O)c1c(N)n(C2CCCCC2)c2nc3ccccc3nc12
-43	.	C=CCN1C(=O)CS/C1=N\S(=O)(=O)c1ccc(Cl)s1
27	.	CN(C(=O)/C=C\C(=O)O)C1CCS(=O)(=O)C1 (stereo unspecified)
.	-16	COc1cccc(NC(=S)NCc2ccco2)c1
.	-2.3	COc1ccccc1OCCSc1nc2ccc(Br)cc2[nH]1
14	.	Cc1noc(C(=O)Nc2sc3c(c2C#N)CCC3)c1Cl
-14	.	CC(Sc1nncn1C)C(=O)Nc1ccc(Cl)cc1 (stereo unspecified)
13	5.2	O=C(O)CCCC(=O)N1CCN(S(=O)(=O)c2ccc(Br)s2)CC1
-4	1.2	CCCCN1C(=O)/C(=C\c2ccc3c(c2)OCO3)SC1=S
10	.	COc1ccc(CCN(C)S(=O)(=O)c2ccc(Cl)s2)cc1OC
-8	0.8	COC(=O)c1cc2sccc2n1C
.	-0.2	c1ccc(CN(Cc2ccccc2)c2nn[nH]n2)cc1
-7	.	CN(CC(=O)Nc1cc(S(C)(=O)=O)ccc1Cl)Cc1nc2ccccc2c(=O)[nH]1
-2	-2.1	CCS(=O)(=O)Nc1cc2c3c(n(S(=O)(=O)CC)c2cc1OC)CCCC3=O
.	2.6	O=C(CC12CC3CC(CC(C3)C1)C2)Nc1c(F)cccc1F
.	0.1	N#CCCNc1cc(C(F)(F)F)cc(C(F)(F)F)c1
-6	.	C=CCNC(=O)c1ccc(C)c(S(=O)(=O)N(CC)CC)c1
-2	.	NC(=O)CSc1ccccc1NC(=O)c1ccc(=O)[nH]c1
13	.	COc1ccccc1N(C)S(=O)(=O)c1ccc(Cl)c(C(=O)O)c1
.	-1.8	Cc1onc(-c2ccccc2)c1-c1ccnn1C(=O)NC(C)C
.	-0.7	Cc1ccc(CNS(=O)(=O)c2cccs2)n1C
.	8.3	CCOC(=O)CSCCOc1ccc(/C=C2/C(=O)NC(=O)N(c3cccc(C)c3)C2=O)cc1OC
4	.	Nc1nc(N)nc(N2C(=O)c3ccccc3C2=O)n1
3	0.3	O=C(NC1CCCCC1)C(Cc1ccccc1)N1C(=O)C2C3C=CC(C3)C2C1=O (stereo unspecified)
35	.	Cc1ccc(-c2ccccc2)n1-c1ccc(O)cc1

(further entries)
Sa helicase inh	MgrA DNA FP	structure
5	.	CC(C)(C)C(=O)c1sc2c(c1N)c(=O)[nH]c(=O)n2C1CCCCC1
0	-1.0	COC(=O)C1CCN1C1CCCCC1 (stereo unspecified)
.	-0.2	S=C(Nc1ccccn1)Nc1ccccn1
20	.	O=C(NS(=O)(=O)c1ccc(Cl)s1)c1ccccc1
14	.	N#CCSc1ccccc1C(=O)O
.	-2.2	O=C(NNC(=O)C(F)(F)F)c1ccc[nH]1
7	.	COc1ccc(-c2cc(C(=O)N(C)c3cccc(C)c3)no2)cc1S(=O)(=O)N1CCC(C)CC1
-4	.	Nc1cc(-c2ccccc2)nn1S(=O)(=O)c1cccc2nsnc12
-15	.	Cn1c(=S)[nH]c2sccc2c1=O
-19	.	CN1CCN(C(=O)CCCN2C(=O)/C(=C/c3ccc(Cl)cc3)SC2=S)CC1
.	0.5	N#CCC(=O)NNC(=S)NC1CC2C=CC1C2 (stereo unspecified)
6&-3	2.5	N=C(N)SCC1CN=C(N)S1 (stereo unspecified)
